VDR inh – inhibitors of human vitamin D receptor | Potency, µM, without a hit: max response, negative = inhibition, most hits filed as inhibitors | hit rate 0.93% among 400,000 | VDR-SRC2-3 peptide fluorescence polarization, 2 h; active = well fitted inhibition curve with a large enough effect; inconclusive = small, poorly fitted or top-dose-only effect, or another doubt; inactive = no such curve, though single readings can be large or run the other way; note: series mostly up to about 120 µM
Target sequence (P11473 whole entry, looked up): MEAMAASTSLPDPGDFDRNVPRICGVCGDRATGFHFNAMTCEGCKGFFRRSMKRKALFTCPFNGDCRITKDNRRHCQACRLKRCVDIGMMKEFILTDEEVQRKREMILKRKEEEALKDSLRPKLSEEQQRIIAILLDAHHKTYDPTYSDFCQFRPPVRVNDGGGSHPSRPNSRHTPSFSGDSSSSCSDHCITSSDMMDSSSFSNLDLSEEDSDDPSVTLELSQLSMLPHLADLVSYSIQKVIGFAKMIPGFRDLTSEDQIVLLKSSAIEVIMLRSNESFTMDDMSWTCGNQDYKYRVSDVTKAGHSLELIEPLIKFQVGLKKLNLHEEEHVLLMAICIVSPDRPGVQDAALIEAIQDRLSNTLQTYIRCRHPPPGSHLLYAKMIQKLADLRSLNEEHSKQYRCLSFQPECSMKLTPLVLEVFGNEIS
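Fluorescence polarization assay measuring small-molecule disruption of VDR binding to the coregulator peptide SRC2-3. Compounds were pin-transferred (23 nl) into the reagent mix and incubated 2 h at room temperature before reading.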
Active calls of the source: *; ? = inconclusive; & = joins results of further samples. % is set by controls: 0 for no effect and ±100 for the full control effect; potency is the fitted concentration of half-maximal effect. This is a subset. The share of hits here may be higher or lower than overall.

VDR inh	compound
5.1%	COc1ccc(OCC(=O)OCC(=O)Nc2ccc(S(=O)(=O)N3CCCCC3)cc2)cc1
0.2%	CC(=O)Nc1nonc1-c1nnc(SCC(=O)Nc2cccc(F)c2)n1-c1ccccc1
-7.6%	CCOC(=O)C(NC(C)=O)C(=O)Nc1ccc(C)cc1C (centres undefined)
-0.4%	Cc1ccc(OCC(=O)NNC(=O)C2CCN(c3nccc(C)n3)CC2)cc1
-1.2%	CCN(CC)CCN(C(=O)c1ccc(S(=O)(=O)N(CC)c2ccccc2)cc1)c1nc2c(OC)ccc(OC)c2s1
-3.0%	COc1cc(Cl)c(C)cc1NC(=O)c1cnc(N2CCOCC2)c2ccccc12
?	COc1ccc(N2CCN(C3CCN(S(=O)(=O)c4ccc(F)cc4)CC3)CC2)cc1
-4.5%	CCC(C)N1CCCCC1C(=O)Nc1c(C)cc(C)cc1C (centres undefined)
-7.7%	Cc1ccc(Cc2c(C)nc3nc(SCC(=O)NC(C)c4ccccc4)nn3c2C)cc1 (centres undefined)
0.8%	C/C(=N\Nc1ccc([N+](=O)[O-])cc1)c1ccc(-n2nncc2C)cc1
15.8%	COc1cc2c(cc1OC)NC(=O)C2
2.3%	CCC(C)(C)NC(=O)CN(CCc1cccc(C)c1)C(=O)c1csnn1
3.9%	COc1ccc(Cl)cc1C(=O)O/N=C(\N)c1ccccn1
-3.2%	c1ccc(-c2noc(CSc3nnc(Cc4cccs4)n3-c3ccccc3)n2)cc1
13.4%	CC(=O)Nc1ccc(NC(=O)Cn2c(=O)n(-c3ccccc3)c(=O)c3oc4ccccc4c32)cc1
-15.8%	C/C(CC(=O)Nc1ccc(Cl)cc1C(F)(F)F)=N\NC(=O)c1ccccn1
-8.5%	CCCCNC(=O)C1C2C=CC3(CN(Cc4ccc(C)cc4)C(=O)C13)O2 (centres undefined)
-22.1%	COc1ccccc1C(=O)Nc1ccc2nc(N3CCC(C)CC3)cc(C)c2c1
-10.6%	COC(=O)[C@H](Cc1ccccc1)NC(=O)O[C@@H]1C(=O)c2cc(OC)ccc2O[C@H]1c1ccc(OC)c(Br)c1
1.6%	O=[N+]([O-])c1ccc(F)cc1F
6.3%	Cc1ccc2nc(-c3ccc(NC(=O)c4ccc(S(C)(=O)=O)cc4)cc3)sc2c1
7.5%	CCOc1ccc(NC(=O)C(CC(=O)O)Cc2ccc(Br)cc2)cc1 (centres undefined)
-6.7%	Cc1ccc(-c2csc(NC(=O)c3cccc([N+](=O)[O-])c3C(=O)O)n2)cc1
-1.6%	O=C(CN1CCN(S(=O)(=O)c2ccc(Cl)cc2)CC1)NCc1cccs1
?	O=S(=O)(c1ccc(Cl)c(NC(=S)Nc2cccc(O)c2)c1)N1CCOCC1

5 compounds picked at random from those above:
VDR inh	compound
-15.8%	C/C(CC(=O)Nc1ccc(Cl)cc1C(F)(F)F)=N\NC(=O)c1ccccn1
-22.1%	COc1ccccc1C(=O)Nc1ccc2nc(N3CCC(C)CC3)cc(C)c2c1
13.4%	CC(=O)Nc1ccc(NC(=O)Cn2c(=O)n(-c3ccccc3)c(=O)c3oc4ccccc4c32)cc1
-1.6%	O=C(CN1CCN(S(=O)(=O)c2ccc(Cl)cc2)CC1)NCc1cccs1
?	COc1ccc(N2CCN(C3CCN(S(=O)(=O)c4ccc(F)cc4)CC3)CC2)cc1

Further structures
VDR inh	compound
6.6%	CN(C(=O)Cn1nnc(-c2cccc(C(F)(F)F)c2)n1)C1CCCCC1
0.6%	O=S(=O)(NCCSc1ccccc1)c1ccc2c(c1)OCCO2
-11.6%	Cc1ccc2oc(C(=O)N3CCC(N4CCSCC4)CC3)c(C)c2c1
?	Cc1csc(NC(=O)c2cccc(S(=O)(=O)N3CCN(C)CC3)c2)n1
-1.4%	CCCCNC(=O)CCn1nc(-c2ccccc2)ccc1=O
7.2%	CC(C)CCNC(=O)CN(Cc1ccccc1Cl)C(=O)CCC(=O)Nc1ccccn1
-7.8%&-4.2%	CCN(CC)CCNC(=O)c1cc(-c2ccc(Br)s2)nc2ccccc12
13.8%	O=C(O)Cc1cc(I)c(Oc2cc(I)c(O)c(I)c2)c(I)c1
-17.4%	COc1ccc(C2SCCN2C(=S)Nc2ccc(Cl)cc2)cc1 (centres undefined)
-5.1%	COc1ccc(-c2cc(C(=O)Nc3cccc(S(=O)(=O)NCc4ccco4)c3)c3ccccc3n2)cc1OC
-11.2%	CC(CNC(=O)c1ccc(C(C)(C)C)cc1)CN(C)C (centres undefined)
-20.1%	Cc1ccccc1N1CCN(C2CCCN(C(=O)c3cc(CC(C)C)nn3C)C2)CC1 (centres undefined)
3.9%	CCCCC(CC)C(=O)NCCc1ccc(S(N)(=O)=O)cc1 (centres undefined)
-2.3%	O=C(CNC(=O)c1sc2ccccc2c1Cl)NCc1ccccc1
-16.0%	COC(=O)CC1C(=O)NC2CCCCC2N1C(=O)CCl (centres undefined)
-24.2%	O=C(Nc1nc2ccc(F)cc2s1)c1ccc(N2CCCC2=O)cc1
-8.8%	Cc1ccc(S(=O)(=O)N2CCC(N3CCN(C)CC3)CC2)cc1Cl
-6.2%	O=C(c1ccccc1)N1CCSc2sccc2C1=O
-5.9%	CCCS(=O)(=O)N1CCC(C(=O)NC2CCCC(C)C2C)CC1 (centres undefined)
6.8%	O=C(CN(Cc1ccco1)C(=O)c1ccc(Cl)cc1)Nc1c(Cl)cc(Cl)cc1Cl
10.3%	N#CC1(Nc2ccc([N+](=O)[O-])cc2)CCCC1
0.1%	COC(=O)c1ccc(NC(=O)NCCn2nnc3cc(S(=O)(=O)N(C)C)ccc32)cc1
4.9%	Cc1cccc(-c2nnc(N)s2)c1
-12.8%	NS(=O)(=O)c1cccc(NC(=O)CN2CCCc3ccccc32)c1
17.0%	Cc1cc(Cl)ccc1OCc1nc(-c2ccncc2)no1

Remaining list, next part:
VDR inh	compound
7.5%	CCc1ccc2occ(CC(=O)Nc3ccccc3C(F)(F)F)c2c1
-3.0%	CNC(=O)CN(C)S(=O)(=O)c1ccc(OC)c(Cl)c1
-9.1%	C#CCOC(=O)Nc1ccc(OCC(F)(F)F)nc1
0.3%	CCN(CC)S(=O)(=O)c1ccc(-c2nnco2)cc1
7.0%	CCOc1ccc(-c2nc(CSCC(=O)N3CCN(c4cccc(C(F)(F)F)c4)CC3)c(C)o2)cc1
2.4%	COC(=O)NC1C=CCCC1C(C)=O (centres undefined)
-14.7%	Cc1cc2oc(=O)sc2cc1NS(=O)(=O)c1ccccc1
-20.9%	NC(=O)C1(N2CCCCC2)CCN(Cc2ccc(F)cc2)CC1
-10.8%	N#CC1(c2ccccc2)CCCN1C(=O)c1ccc(Br)o1 (centres undefined)
-19.4%	CCOC(=O)c1ccc(NC(=O)C2CCC(CNc3c(N4CCOCC4)c(=O)c3=O)CC2)cc1 (centres undefined)
12.2%	C=CCn1c(COc2ccccc2)nnc1SCC(=O)NCC(=O)OCC
6.7%	CC(=O)c1cccc(N(CC(=O)NC2CCCCC2)C(=O)CNC(=O)c2cccs2)c1
0.1%	Cc1cc(=O)c2cc(Br)ccc2n1CC(=O)NCc1ccccc1
-14.4%	COc1ccc(Cl)cc1C(=O)NC(=S)Nc1cc(-c2nc3ccccc3[nH]2)ccc1C
16.8%	O=C(CN1CCCCC1)Nc1c2c(nc3ccccc13)N(c1ccccc1)CC2
-29.4%	COCCNc1nc(CSc2ccccc2)nc2sc(C)c(C)c12
0.7%	COc1ccc(C2COc3c(ccc(O)c3OC)C2)c(OC)c1O (centres undefined)
4.4%	Cc1nn2c(-c3ccc(S(=O)(=O)N4CCN(C)CC4)o3)nnc2c2ccccc12
14.9%	COC(=O)c1ccc(N2CCN(C(C)=O)CC2)c(NC(=O)COc2ccccc2C)c1
13.1%	O=C(Nc1cc(S(=O)(=O)N2CCOCC2)ccc1N1CCOCC1)c1cn2ccccc2n1
-4.7%	COc1ccc(NC(=O)c2ccccc2Oc2ccccc2)cc1
8.2%	O=C(Nc1ccc(CN2CCCCC2)cc1)c1ccc2c(c1)OCO2
-15.9%	CC(C)n1c(O)c(N=NC(=O)CNC(=O)CCc2ccccc2)c2ccccc21
-2.3%	CCOc1ccc(-n2cnc3scc(-c4ccc(OC)c(OC)c4)c3c2=O)cc1
-4.9%	Cc1cc(C)c(S(=O)(=O)n2ccc(-c3ccc(OCCN(C)c4ccccn4)cc3)n2)c(C)c1

Grouped by structure: those above containing a COOH group
VDR inh	compound
7.5%	CCOc1ccc(NC(=O)C(CC(=O)O)Cc2ccc(Br)cc2)cc1 (centres undefined)
-6.7%	Cc1ccc(-c2csc(NC(=O)c3cccc([N+](=O)[O-])c3C(=O)O)n2)cc1
13.8%	O=C(O)Cc1cc(I)c(Oc2cc(I)c(O)c(I)c2)c(I)c1

Carrying on.
VDR inh	compound
6.1%	Cc1ccc(S(=O)(=O)N2CCC(C(=O)OCC(=O)N3CCCC(C)C3)CC2)cc1C (centres undefined)
-15.1%	COc1cc(C(=O)NCc2ccccc2)ccc1OC(F)F
-6.9%	Cn1c(CNC2CCCCC2)c(C#N)c2ccccc21
-3.4%	COC(=O)CCCNC(=O)c1ccc(S(=O)(=O)NCc2ccco2)cc1
-0.2%	COc1cccc(C2C(C(=O)Nc3cccnc3)=C(C)Nc3nc(SCc4ccccc4)nn32)c1 (centres undefined)
-14.0%	CN=c1scc(-c2ccc([N+](=O)[O-])cc2)n1/N=C/c1ccco1
10.4%	Clc1ccccn1
6.1%	C=CCOC(=O)C1=C(C)Nc2nc3ccccc3n2C1c1ccncc1 (centres undefined)
-5.1%	CCCCC(=O)Nc1ccc(C(=O)Nc2nc(CC(=O)OCC)cs2)cc1
5.6%	CCCc1nn2c(=O)cc(COC(=O)c3cccc(NC(=O)COc4ccccc4C)c3)nc2s1
12.9%	CCCCCCCCCCCCCCCC[N+](C)(C)Cc1ccc(F)cc1
9.5%	COc1ccc(OCC(=O)N/N=C(\C)CC(=O)Nc2ccc(NC(C)=O)cc2)cc1
-5.1%	CCOc1ccc(NC(=O)CSc2cn(CCNC(=O)c3ccccc3F)c3ccccc23)cc1
-7.8%	CCCOc1ccccc1C1Oc2nc(SC)nnc2-c2ccccc2N1C(C)=O (centres undefined)
17.0%	COc1ccc(CCNC(=O)c2ccc3nc4cc(Cl)ccc4c(=O)n3c2)cc1OC
4.0%	CCn1c(=O)cc(O)c2c(=O)n(C)c(=O)n(C)c21
2.8%	CN(C)S(=O)(=O)c1cccc(C(=O)Nc2cc(Cl)ccc2O)c1
-3.8%	O=c1cc(-c2ccccc2)[nH]c2nc3ccccc3n12
0.4%&-15.4%	O=C1CCC[C@@H]2CC(Nc3ccc(F)cc3F)C[C@@H]3CCN1[C@H]23 (some centres undefined)
1.5%	NC(=O)CCCc1nc(-c2ccccc2Cl)no1
-2.7%	Cc1ccc(NC(=O)c2cc(-n3cnnc3)ccc2Cl)c(C)c1
-19.7%	FC(F)(F)c1cccc(NC(=S)NCc2ccc(Cl)cc2)c1
-9.9%	O=C(c1ccccc1)c1cccc(C(=O)c2ccccc2)c1
12.6%	Cc1cc(NC(=O)Nc2ccccc2)n(-c2ccccc2)n1
4.5%	CCc1ccc(NC(=O)C(=O)NCCN2CCN(S(=O)(=O)c3ccccc3)CC2)cc1

Looked up above.
Entry for CCCCC(=O)Nc1ccc(C(=O)Nc2nc(CC(=O)OCC)cs2)cc1 in VDR inh: -5.1%
Entry for Cc1ccc(S(=O)(=O)N2CCC(C(=O)OCC(=O)N3CCCC(C)C3)CC2)cc1C (centres undefined) in VDR inh: 6.1%

Continued.
VDR inh	compound
-13.1%	COc1ccccc1NS(=O)(=O)c1cc(C(=O)NCC2CCCO2)ccc1C (centres undefined)
-19.6%	Cc1ccc(C(=O)c2ccccc2C(=O)OCC(=O)Nc2ccc(SC(F)F)cc2)cc1
-1.8%	COc1ccc(-n2cc(-c3ccccc3)[nH]c2=S)cc1
22.6%	CCC(C)c1ccc(NC(=O)CN(C)CC(=O)Nc2cccc(OC)c2)cc1 (centres undefined)
4.6%	Cc1cc(C)cc(NC(=O)C2CCCN2S(=O)(=O)c2ccc3c(c2)CCCC(=O)N3)c1 (centres undefined)
-5.9%	CCOC(=O)c1ccccc1NC(=O)C1CSC2(C)CCC(=O)N12 (centres undefined)
-2.8%	COc1cc(CCCN2CCNC[C@@H]2c2ccccc2)cc(OC)c1OC
?	CCOC(=O)n1c(=O)n(Cc2cccc(C)c2)c2ccccc21
2.3%	COc1ccc(Cn2c(-c3ccco3)nc3oc4ccccc4c(=O)c3c2=O)cc1
3.1%	O=C(Cn1c(=O)n(-c2ccc(F)cc2)c(=O)c2sc3ccccc3c21)N1CCCC1
5.7%	N#C[C@@H]1N(Cc2ccccc2)C(=O)[C@H]2CC3C=CC21O3 (some centres undefined)
24.6%	Cc1cc(NCCO)nc(-n2nc(C)cc2C)n1
-17.0%	COc1ccc(NC2SC(=O)N(CC(=O)O)C2=O)cc1 (centres undefined)
?	Cc1[nH][nH]c(=O)c1C(c1ccc(-c2cccc(C(=O)O)c2)o1)c1c(C)[nH][nH]c1=O
1.8%	CC(NC(=O)c1cc(S(=O)(=O)N2CCOCC2)cn1C)c1ccccc1 (centres undefined)
-6.2%	Cc1cc(C)n(S(=O)(=O)c2ccc3ccccc3c2)n1
8.2%	CCOc1ccc(-c2cc(C(=O)N3CCN(S(=O)(=O)c4cc(Cl)ccc4OC)CC3)[nH]n2)cc1
-10.0%	CC(C)Cc1nc(C#N)c(N2CCC(C(N)=O)CC2)o1
8.3%	CCc1cccc(NC(=O)CSc2n[nH]c(-c3ccccc3Cl)n2)c1
6.1%	O=C(COC(=O)c1cccc(S(=O)(=O)N2CCOCC2)c1)Nc1ncc(Cl)cc1Cl
7.2%	CCOc1ccc(N(CC(=O)Nc2cccc(C)c2)S(C)(=O)=O)cc1
?	[O-]c1n[n+](-c2ccc(Cl)cc2)cc2ccccc12
?	O=C(Cc1nc2ccccc2[nH]1)c1ccc([N+](=O)[O-])cc1
1.2%	Cc1ccc(CCNC(=O)c2cc3c(=O)oc4ccccc4c3s2)cc1
4.7%	O=C(O)c1cccc(C(=O)O)c1Br
-11.5%	Cc1ccc(OCC(=O)Oc2ccccc2[N+](=O)[O-])cc1
?	COc1ccc(C(=O)NNC(=O)C(=O)Nc2ccc(C)c(Cl)c2)cc1
3.4%	CCOc1ccc(NC(=O)COc2coc(CN3CCc4ccccc4C3)cc2=O)cc1

Bioassay records: PubChem, National Center for Advancing Translational Sciences (NCATS)
